HNF4A DNA FP: change in binding of human HNF4 alpha to DNA; activity change, % at 10 µM; 360,000 tested, 0.3% active; HNF4a-FITC DNA binding, fluorescence polarization, 1 h; AID 1224865; P41235; in the data active = activity change above about 30%, passing the limit was not always enough;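 also: controls were the assay level and a saturating level of protein; the project sought stronger binding though the title names inhibitors; some compounds called inactive have numbers as strong as hits; positive values seem to mean higher polarization but the record does not say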
Target sequence (P41235 whole entry, looked up): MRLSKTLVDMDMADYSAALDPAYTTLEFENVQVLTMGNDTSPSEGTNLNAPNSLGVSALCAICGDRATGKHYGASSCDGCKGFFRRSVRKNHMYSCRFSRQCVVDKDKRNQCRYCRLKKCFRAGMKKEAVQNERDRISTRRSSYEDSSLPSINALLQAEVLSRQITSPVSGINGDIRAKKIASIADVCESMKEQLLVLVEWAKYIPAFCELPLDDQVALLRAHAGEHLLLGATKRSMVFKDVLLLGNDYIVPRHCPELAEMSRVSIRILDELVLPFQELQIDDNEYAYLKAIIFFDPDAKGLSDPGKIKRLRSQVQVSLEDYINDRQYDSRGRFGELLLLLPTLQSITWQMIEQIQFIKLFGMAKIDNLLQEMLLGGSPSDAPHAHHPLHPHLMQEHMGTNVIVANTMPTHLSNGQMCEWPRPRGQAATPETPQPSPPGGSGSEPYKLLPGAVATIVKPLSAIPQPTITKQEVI
Vif A3G: HIV-1 Vif–A3G interaction blockers – biochemical, TR-FRET, GST-Vif 1-94, biotin-A3G peptide, dose response retest, primary screen (AID 1117319); TR-FRET GST-Vif / biotin-A3G peptide binding; higher % means a stronger effect; test concentration not given here; strong numbers were not always called active; inhibition, %; hits with a dose series show IC50 in µM; 260,000 tested, 0.57% active;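 active = above the screen mean plus three standard deviations and confirmed in dose response; inconclusive = results disagree or hit not tested in dose response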;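 also: Vif residues 1-94 fused to GST binding biotinylated APOBEC3G peptide 110-148; 0% = full assay without inhibitor and 100% = GST in place of GST-Vif; retest series ran down from 100 µM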
ALR inh: inhibitors of human sulfhydryl oxidase ALR. purified ALR, DTT oxidation, H2O2 HRP-luminol luminescence. 290,000 tested, 3.8% active. inhibition, % (concentration not given with the values);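 active = mean and each replicate at 75% or more; inconclusive = only one of the two met; inactive = neither met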;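 also: stock transfer was 7.5 nL into about 7.5 µL; 0% = neutral wells and 100% = wells with inactivated enzyme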
Target sequence (P55789 whole entry, looked up): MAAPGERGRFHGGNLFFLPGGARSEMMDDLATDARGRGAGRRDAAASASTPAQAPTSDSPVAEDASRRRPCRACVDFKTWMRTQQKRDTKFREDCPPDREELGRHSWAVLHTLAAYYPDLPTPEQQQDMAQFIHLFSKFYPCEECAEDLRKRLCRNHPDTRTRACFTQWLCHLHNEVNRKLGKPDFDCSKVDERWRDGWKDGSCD
RanGTP-Imp inh: disruptors of Ran-importin-beta complex formation – biochemical, FRET, CFP-Ran, YFP-importin-beta, homogeneous, primary screen. 300,000 tested, 1.1% active. cell-free CFP-Ran/YFP-importin-beta FRET ratio. inhibition, % (concentration not given with the values);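 active = most replicates above 15%; inconclusive = exactly half above 15%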;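 also: 0% = DMSO wells and 100% = Ran loaded with GDP instead of GTP; wells of about 40 µL received 100 nL stock; the first replicate is given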
Calb FLC: C. albicans growth modulation with fluconazole; C. albicans CaCi-2 (fluconazole-resistant clinical isolate) + fluconazole, Alamar Blue growth, 48 h; growth inhibition, % (concentration not given with the values); 300,000 tested, 0.57% active; AID 1979;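 active = most replicates above 75%; inconclusive = exactly half above 75%; inactive = most below 75%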;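 also: all wells also contain fluconazole at 8 µg/ml as a sub-toxic cotreatment; 0% = median of DMSO wells and 100% = median of geldanamycin control wells; wells of about 8 µL received 7.5 nL stock; the first replicate is given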
LANA-H2A inh: blocks KSHV LANA binding to histone H2A/H2B. Q9QR71. cell-free LANA-H2A/H2B peptide, fluorescence polarization. inhibition, % (test concentration not listed). 320,000 tested, 0.6% active. AID 2629; in the data active = inhibition mostly above about 10%, no sharp cut-off; inactive = mostly below about 6.7%;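 also: stock transfer was 7.5 nL into about 10 µL; 0% = median of vehicle wells and 100% = median of positive control wells; one replicate is shown; the record names a cut of 25% in any replicate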
B2AR ag: activates human beta-2 adrenergic receptor causing internalization | P07550 | Am2.2-beta2AR cells, FAP receptor internalization, flow cytometry; reference of the scale not given here | response, % (no concentration beside the values) | 340,000 tested, 0.43% active | AID 504454;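 active = response above a set limit, near 3 SD of response in nonfluorescent compounds, cut at about 42% in these data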;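 also: stock transfer was 100 nL into about 11 µL; a reference agonist was the positive control; negative values mostly stem from fluorescent compounds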
Target sequence (P07550 whole entry, looked up): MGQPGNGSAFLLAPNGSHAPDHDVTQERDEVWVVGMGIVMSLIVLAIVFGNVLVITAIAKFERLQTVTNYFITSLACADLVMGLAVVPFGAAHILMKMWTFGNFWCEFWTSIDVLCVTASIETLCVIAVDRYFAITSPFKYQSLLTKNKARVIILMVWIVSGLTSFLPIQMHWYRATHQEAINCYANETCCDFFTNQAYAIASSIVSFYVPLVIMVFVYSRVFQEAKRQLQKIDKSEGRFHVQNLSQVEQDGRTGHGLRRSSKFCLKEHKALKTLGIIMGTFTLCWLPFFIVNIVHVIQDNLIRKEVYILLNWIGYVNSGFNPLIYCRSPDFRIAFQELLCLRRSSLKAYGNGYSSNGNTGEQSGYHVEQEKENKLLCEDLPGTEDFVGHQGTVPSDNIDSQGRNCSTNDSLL
Starred values were filed as active, the others as inactive; ? = inconclusive; . = no result given; & = joins results of further samples. Rows are unselected (roughly 6.3% active in at least one column).

SMILES	HNF4A DNA FP	Vif A3G	ALR inh	RanGTP-Imp inh	Calb FLC	LANA-H2A inh	B2AR ag
O=[N+]([O-])c1ccc(S(=O)(=O)N/N=C/c2ccco2)cc1	1.2	-7%	4	1.1	-12	-5.5	0
Cc1nc(C(=O)NNC(=O)c2cccc(Cl)c2)c(C(F)(F)F)o1	-1.2	-6%	-4	4.4	-5	3.5	-5
CC(=O)NS(=O)(=O)c1ccc(N=c2ssc3c2-c2cc(C)ccc2NC3(C)C)cc1	-2.4	29%	.	-2.0	9	.	14
CCN1CCN(c2ccc(S(=O)(=O)N3CCCCC3)cc2NC(=O)COc2ccc(Cl)c(C)c2)CC1	2.1	.	-2	?	8	-0.3	17
O=C(NC1CCCCC1)C(c1ccccn1)N(C(=O)c1csnn1)C1CCCCC1 (stereo not given)	-2.8	.	-1	2.5	-4	7.8	-4
CCOc1cc(C(=O)N(CC)CC(=O)Nc2c(F)cccc2F)ccc1OCC(=O)N1CCOCC1	-0.1	4%	.	.	.	.	-2
CCN(CC)S(=O)(=O)c1ccc(C)c(NC(=O)COC(=O)[C@@H]2CCCN2C(=O)c2cccs2)c1	0.8	32%	-6	-0.3	9	15*	2
CCCN(CC(=O)Nc1cc(Cl)ccc1Cl)C(=O)c1ccccc1SCC(=O)N1CCCC1	3.0	-5%	.	1.7	-1	.	-17
Cc1cc(Nc2ccccc2)nc(N2CCN(C(=O)c3ccc4c(c3)OCO4)CC2)n1	-3.3	3%	6	1.0	0	-0.2	-2
CCOc1cc(N2CCOCC2)c(OCC)cc1NC(=O)Cc1ccc(OC)c(OC)c1	-2.1	15%	-2	.	7	-1.5	11
CCOCCCn1cc(C(=O)c2cc(Br)ccc2O)cc(C#N)c1=O	7.9	20%	-3	-3.8	14	-3.3	3
Cc1ccc2c(c1)C(=NC1CCCCC1)c1cc3ccccc3nc1-2	2.3	.	.	1.9	2	-1.0	28
COCCNC(=O)c1cn(C)c2ccc(S(=O)(=O)N(C)C3CCCCC3)cc2c1=O	2.0	-1%	-17	.	.	-3.2	-9
NC(=O)c1ccc(NC(=O)COC(=O)C2CC(=O)N(Cc3ccccc3)C2)cc1 (stereo not given)	2.2	8%	9	1.0	-4	0.2	3
Cc1cccc(-n2c(C)cc(/C=N\NC(=O)c3cccs3)c2C)c1	15	10%	5	4.1	-1	4.2	-19
COc1ccc(N(C(=O)c2snc(C(N)=O)c2N)C(C(=O)NCC2CCCO2)c2ccc(C)o2)cc1OC (stereo not given)	-1.1	.	.	-0.2	1	-4.7	24
CCO[C@@H]1OC(C(=O)N2CCN(Cc3ccc4c(c3)OCO4)CC2)=C[C@H](C2CCCCC2)[C@H]1CCCO	-4.6	.	-12	-1.4	-9	-6.9	8
O=S(=O)(Nc1cccnc1)c1cccc(C(F)(F)F)c1	-2.5	-1%	2	-5.7	34	-14	6
CCN1CCN(Cc2ccc(NC(=O)c3cc(NC(=O)c4nccnc4N)cc(OC)c3)cc2C(F)(F)F)CC1	5.8	-5%	-14	0.9	-3	1.4	-2
CCCC(CCC)C(=O)NC1CCN(Cc2ccccc2)CC1	-4.2	7%	0	-2.8	-2	-0.6	2
COc1ccc(C2/C(=C(/O)c3ccc(OC(C)C)cc3)C(=O)C(=O)N2CCCN2CCOCC2)cc1 (stereo not given)	6.3	5%	10	-1.5	-5	2.9	0
Cc1ccc(-n2cc(C(=O)c3ccc(F)cc3)nn2)cc1Cl	-0.1	16%	-3	1.1	0	-1.9	0
c1ccc(-c2nc(CSc3nnc(-c4cccs4)o3)cs2)cc1	2.8	-4%&24%	98*	-4.1	2	0.0	11
O=C(NCCc1ccccc1)C1CCC(Cn2c(=O)c3ccccc3n(Cc3cccnc3)c2=O)CC1 (stereo not given)	6.1	3%	-8	-3.1	-4	9.2	-2
O=C1N[C@@H](Cc2ccccc2)COC(=O)[C@H](Cc2ccc(F)cc2)C/C=C\C[C@H]1CC(=O)N(CCO)Cc1ccccc1	4.7	7%	-2	.	.	-432	13
CCCCCCC1(C)NC(=S)N(c2ccccc2)N1 (stereo not given)	1.5	11%	-9	-2.7	-14	13*	-1
Cc1noc(C)c1NC(=O)N(C)C[C@@H]1Oc2ccc(NS(=O)(=O)c3c(C)noc3C)cc2C(=O)N([C@H](C)CO)C[C@H]1C	-4.9	.	5	.	.	3.2	-2
CCN(CC)c1ccc(/C=N/NC(=O)Cc2cccs2)cc1	2.0	8%	69	-3.0	2	0.1	-4
Cc1cc(C(=O)OCC(=O)NC2CC2)ccc1[N+](=O)[O-]	0.1	-6%	-5	.	.	4.8	-1
CCOc1ccccc1C(=O)Nc1ccc(S(=O)(=O)Nc2nccc(C)n2)cc1	5.5	-8%	-11	-3.3	-14	0.2	11
CCOc1ccc2nc(SCC(=O)Nc3ccc(S(=O)(=O)N4CCCC4)cc3)c(C)cc2c1	3.8	-45%	0	5.0	0	-2.6	3
COc1cc(-c2nnc(COC(=O)CSCC(=O)Nc3cc(C)on3)o2)cc(OC)c1OC	-1.6	8%	.	-2.2	-2	-0.5	2
c1ccc(-c2noc(C3CCC3)n2)nc1	-2.6	-7%	-6	4.3	3	-1.0	-8
O=C1N=C(N2CCOCC2)S/C1=C/c1ccc(-c2ccc(F)cc2)o1	8.0	.	.	11	10	-4.9	1
CCCCc1cc(=O)oc2cc(C)cc(OCC(=O)NCc3ccccn3)c12	-1.6	.	-30	8.8	4	6.8	1
COc1ccccc1NC1CCCCC1NS(=O)(=O)c1ccc(C)cc1 (stereo not given)	4.8	.	.	4.1	23	.	-1
CC(NC(=O)NNC(=O)c1ccncc1)(C(F)(F)F)C(F)(F)F	1.5	-1%	16	-2.9	-7	-8.4	3
CNc1nc(C)c(C(C)=O)cc1C#N	-2.1	-3%	-7	-2.7	1	2.5	-5
O=C(Cc1ccc(Cl)cc1)N1CCN(c2ccccc2)CC1	-0.4	-1%	88*	-0.3	.	1.3	2
Cc1cc(N)n2nc(-c3ccc(C(C)(C)C)cc3)cc2n1	3.9	?	0	-0.5	1	0.6	6
COc1ccc(N2CCN(CCNS(=O)(=O)c3cccc4nsnc34)CC2)cc1	-1.0	2%	.	.	.	.	-9
O=C(Nc1ccccc1)N1CCC(O)(c2cccc(C(F)(F)F)c2)CC1	-0.1	-1%	7	?	-24	-6.3	-2
Cc1ccc(-c2ccc(C(=O)O)[nH]2)cc1	2.1	-2%	29	-2.8	-2	-1.2	5
COCCNC(=O)c1cc2cc(Cl)cc(Cl)c2oc1=O	3.1	-2%	0	?	2	-5.7	-11
Cc1cc(S(=O)(=O)Nc2cccc([N+](=O)[O-])c2)c(C)s1	1.0	1%	-3	-0.2	-9	-5.2	1
c1ccc(-c2cn(C[C@H]3CC[C@@H]([C@@H]4CC[C@H](Cn5cc(-c6ccccn6)nn5)O4)O3)nn2)nc1	-2.1	.	2	9.5	-3	3.2	-6
CN(C)c1ccc2c(c1)OC(N)=C(C#N)C2c1cccc(F)c1 (stereo not given)	67	15%	55	-124	57	-9.3	37
CC1=CN2C(=N)/C(=C/c3ccc(C)o3)C(=O)N=C2S1	2.3	.	.	-1.4	-1	4.4	-9
CC1CCC(NC(=O)c2ccc(-n3cncn3)c([N+](=O)[O-])c2)CC1 (stereo not given)	-0.1	7%	-18	-0.8	0	-2.5	-4
O=C(CCC1CCCCC1)NCCN1C2=NC[C@H](Cc3ccc(O)cc3)N2C[C@H]1Cc1ccc(O)cc1	4.3	.	16	16*	10	5.5	-11
The list goes on.
SMILES	HNF4A DNA FP	Vif A3G	ALR inh	RanGTP-Imp inh	Calb FLC	LANA-H2A inh	B2AR ag
COc1cc(-c2ccc(NC(=O)NC3CC3)c(OC)c2)ccc1NC(=O)NC1CC1	.	-1%	-7	6.2	.	-1.5	.
O=C(CSc1ccc(Cl)cc1)Nc1nnc(-c2cccc([N+](=O)[O-])c2)s1	-1.7	20%	.	3.0	0	-1.9	23
Cc1ccccc1C(=O)NC(=S)Nc1ccc(S(=O)(=O)N2CCOCC2)cc1	-2.8	.	2	0.9	3	0.4	17
Cc1cc(C)cc(NC(=O)CCn2c(=O)c3cccn3c3ccccc32)c1	2.2	.	-4	0.3	-6	-6.2	-9
O=C1NC(=O)/C(=C/c2ccccc2Cl)N1	0.9	3%	69	2.8	-5	-1.9	7
C=CCC1NS(=O)(=O)OCC1C(C)C (stereo not given)	-1.1	.	-3	?	0	-0.8	3
O=C(O)/C=C/c1coc2ccc(F)cc2c1=O	0.0	29%	13	-2.0	-7	-0.4	-4
COc1cccc(C2CC(=O)N3CN(c4cccc(Cl)c4C)CSC3=C2C#N)c1OC (stereo not given)	-3.9	7%	-20	-0.2	-4	-1.0	-3
Cc1ccc2nc3sc(C(=O)NCc4ccco4)c(N)c3cc2c1	15	-8%	8	-33	-3	4.0	11
Cn1c(CCNC(=O)c2ccco2)nc2cc(NC(=O)c3ccccc3)ccc21	-0.5	-10%	-2	1.5	1	5.6	-3
O=C(COC(=O)c1nc(Cl)ccc1Cl)NC(=O)c1ccccc1	-0.8	.	-5	1.2	6	-1.2	1
COc1ccc(N2CCN(Cc3cc(=O)c(OCC(=O)Nc4ccccc4)co3)CC2)cc1	-1.5	11%	2	-5.3	4	-0.6	-1
O=C1Nc2ccccc2C12OCCCCO2	2.8	2%	8	-0.8	19	4.4	4
COc1ccccc1NC(=O)C(C)OC(=O)c1cccc(-n2cnnn2)c1 (stereo not given)	1.1	3%	-6	7.8	-1	-10	-3
O=C(c1csc2c1CCCC2)N1CCN(c2ccc(F)cc2)CC1	-1.2	15%	.	-0.9	7	-0.6	5
COC(=O)c1ccc2c(c1)NC1=C(C(=O)CC(C)(C)C1)C(c1ccncc1)N2 (stereo not given)	-1.7	4%	-20	-0.1	-5	-1.4	8
CCCCn1c(-c2nn(C)c(C)c2Cl)n[nH]c1=S	0.7	-2%	48	-1.2	-4	1.0	2
O=C(O)c1c(Cl)nc2ccccn12	0.2	.	8	3.5	-10	-1.5	0
Cc1cc(C(=O)N2CCCC(N3CCN(c4cccc(C(F)(F)F)c4)CC3)C2)no1 (stereo not given)	2.6	8%	1	0.6	-3	-6.2	9
CCCN1C(=O)/C(=C2\SC(N3CCCCC3)=NC2=O)c2ccccc21	1.6	13%	1	-1.2	-1	1.6	-16
CC(C)CN(C(=O)COC(=O)c1ccccn1)c1c(N)n(Cc2ccccc2)c(=O)[nH]c1=O	0.5	7%	0	4.3	-2	6.3	-3
O=C(O)CC1=C(O)C(=O)N(c2ccccc2)C1c1ccc(Cl)cc1 (stereo not given)	4.5	?	.	8.4	1	1.7	7
Cc1cc(C(=O)COC(=O)C2=NN(c3ccccc3)C(=O)CC2)c(C)n1CC(F)(F)F	0.3	-4%	-5	1.3	-14	2.9	15
CC1C=CCC2C(=O)N(c3cccc(C(=O)NCc4ccccc4)c3)C(=O)C12 (stereo not given)	-0.3	2%	-4	-4.5	-18	1.2	5
COc1cc2c(cc1OC)C(=O)N1[C@H]3c4ccccc4OC[C@@H]3[C@H](c3ccccc3)[C@]1(C)C(=O)N2	1.4	.	-6	.	.	0.9	6
COc1ccc(CCNC(=O)[C@@H](NC(N)=O)C(C)C)cc1	-1.3	-2%	-1	1.3	-18	-6.4	-4
Cc1cc(C(=O)OCC(=O)Nc2cccc(S(N)(=O)=O)c2)c(C)o1	1.9	.	10	.	.	-2.6	6

Shown as labelled records: two of the compounds above.
> COc1cc2c(cc1OC)C(=O)N1[C@H]3c4ccccc4OC[C@@H]3[C@H](c3ccccc3)[C@]1(C)C(=O)N2
  HNF4A DNA FP: 1.4 | Vif A3G: . | ALR inh: -6 | RanGTP-Imp inh: . | Calb FLC: . | LANA-H2A inh: 0.9 | B2AR ag: 6

> COc1ccc(CCNC(=O)[C@@H](NC(N)=O)C(C)C)cc1
  HNF4A DNA FP: -1.3 | Vif A3G: -2% | ALR inh: -1 | RanGTP-Imp inh: 1.3 | Calb FLC: -18 | LANA-H2A inh: -6.4 | B2AR ag: -4

High-throughput results as filed in PubChem BioAssay.
